Screening data: PubChem BioAssay, several laboratories
Ecoli growth = E. coli growth inhibition, primary screen, OD600 | Escherichia coli growth, 23 h; active compounds read low | OD600 absorbance (no concentration beside the values) | 330,000 compounds, 0.21% hits;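 active = OD600 absorbance below the run mean of sample wells minus 3.6 SD, in any replicate, cut at about 0.56 in these data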;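 also: stock transfer was 300 nL into about 60 µL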
MLL AF4-AF9 inh = inhibitors of AF4 peptide binding to AF9, primary screen, biochemical, AlphaScreen, biotin-AF4 peptide, FLAG-AF9, single point; 350,000 compounds, 0.47% hits; Protein AF-9 (Homo sapiens), P42568; inhibition, % at 10 µM; AID 651704, 2012;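 active = every replicate reaching a set inhibition limit, whatever the replicate mean, cut at about 25% in these data; inconclusive = mean inhibition reaches that limit but some replicates miss it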;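 also: 0% = plate neutral control median and 100% = total signal loss; the record names both 10 and 1 µM as test concentration; the first replicate is given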
Target sequence (P42568 whole entry, looked up): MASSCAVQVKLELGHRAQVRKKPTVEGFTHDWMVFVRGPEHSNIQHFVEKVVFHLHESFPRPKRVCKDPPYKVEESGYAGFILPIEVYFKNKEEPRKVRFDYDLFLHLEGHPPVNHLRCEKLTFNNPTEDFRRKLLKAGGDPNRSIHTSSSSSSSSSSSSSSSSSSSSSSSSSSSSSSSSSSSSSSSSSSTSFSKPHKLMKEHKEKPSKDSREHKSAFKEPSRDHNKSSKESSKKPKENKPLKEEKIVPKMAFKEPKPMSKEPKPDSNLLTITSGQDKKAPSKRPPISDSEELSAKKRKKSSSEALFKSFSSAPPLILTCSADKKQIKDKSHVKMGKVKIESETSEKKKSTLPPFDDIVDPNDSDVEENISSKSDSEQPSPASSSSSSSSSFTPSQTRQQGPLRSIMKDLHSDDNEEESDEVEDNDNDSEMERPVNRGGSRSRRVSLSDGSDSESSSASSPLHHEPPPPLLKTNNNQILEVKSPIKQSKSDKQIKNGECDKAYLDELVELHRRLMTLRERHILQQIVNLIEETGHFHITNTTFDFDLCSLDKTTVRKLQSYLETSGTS
HNF4A DNA FP = change in binding of human HNF4A to DNA, primary screen, biochemical, fluorescence polarization, FITC-DNA; 1 h; 360,000 compounds, 0.3% hits; activity change, % at 10 µM; Hepatocyte nuclear factor 4-alpha (Homo sapiens), P41235; in the data active = activity change above about 30%, passing the limit was not always enough;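 also: controls were the assay level and a saturating level of protein; the project sought stronger binding though the title names inhibitors; some compounds called inactive have numbers as strong as hits; positive values seem to mean higher polarization but the record does not say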
Vif A3G = inhibitors of Vif binding to APOBEC3G peptide, primary screen, biochemical, TR-FRET, GST-Vif 1-94, biotin-A3G peptide, dose response retest (AID 1117319); Virion infectivity factor (Human immunodeficiency virus type 1 group M subtype B (isolate …; TR-FRET GST-Vif / biotin-A3G peptide binding; higher % means a stronger effect; test concentration not given here; strong numbers were not always called active; inhibition, %, or IC50 in µM where a hit was titrated; 260,000 compounds, 0.57% hits;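 active = above the screen mean plus three standard deviations and confirmed in dose response; inconclusive = results disagree or hit not tested in dose response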;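 also: Vif residues 1-94 fused to GST binding biotinylated APOBEC3G peptide 110-148; 0% = full assay without inhibitor and 100% = GST in place of GST-Vif; retest series ran down from 100 µM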
ALR inh = inhibitors of human ALR sulfhydryl oxidase, primary screen, biochemical, H2O2 detection, HRP-luminol luminescence, single point; purified ALR, DTT oxidation; inhibition, % (test concentration not listed); 290,000 compounds, 3.8% hits;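 active = mean and each replicate at 75% or more; inconclusive = only one of the two met; inactive = neither met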;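 also: stock transfer was 7.5 nL into about 7.5 µL; 0% = neutral wells and 100% = wells with inactivated enzyme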
Target sequence (P55789 whole entry, looked up): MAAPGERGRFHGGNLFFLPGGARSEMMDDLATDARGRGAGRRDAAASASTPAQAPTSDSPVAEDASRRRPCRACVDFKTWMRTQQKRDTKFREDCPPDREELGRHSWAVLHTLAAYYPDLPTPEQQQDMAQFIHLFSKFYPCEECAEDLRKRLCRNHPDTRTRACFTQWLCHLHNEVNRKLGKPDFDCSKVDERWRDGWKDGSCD
FGF22 binding = binders of human FGF22 protein, primary screen, FGF22 synaptogenesis inhibitor project, biophysical, thermal shift, single point. Fibroblast growth factor 22 (Homo sapiens), Q9HCT0. recombinant FGF22 thermal shift, SYPRO orange fluorescence; percent of sucrose octasulfate shift, DMSO zero. calls only at 9.99 µM. 340,000 compounds, 1.5% hits. AID 651658, 2012;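 active = melting point raised past a set limit in the mean and every replicate; inconclusive = no clear call; three in four hits are not shown here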
Target sequence (Q9HCT0 whole entry, looked up): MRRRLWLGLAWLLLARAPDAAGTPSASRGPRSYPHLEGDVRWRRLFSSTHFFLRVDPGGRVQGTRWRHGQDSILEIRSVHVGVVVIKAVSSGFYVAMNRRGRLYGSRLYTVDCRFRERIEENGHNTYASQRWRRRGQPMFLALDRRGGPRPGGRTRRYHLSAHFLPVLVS
rRNA inh HTS = reduced GFP signal of wild-type E. coli, primary screen, bacterial rRNA inhibitor project, GFP/RFP fluorescence, OD600, single point. E. coli WT GFP vs humanized-ribosome RFP mutants, 24 h; active compounds read low; DMSO median 0, no signal -100. GFP signal change (wild-type ribosome), % (no concentration beside the values). 350,000 compounds, 1.6% hits;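 active = significant combined selectivity score with lowered wild-type GFP, culture density cut under 30%, mutant RFP and density less affected; inactive = any of these conditions unmet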; also: one replicate is shown; some compounds called inactive have numbers as strong as hits
rRNA inh HTS OD600 = also measured in rRNA inh HTS; calls as there; OD600 change, %; measured here: OD600 growth;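 optical density of the mix in the first replicate; 0 = DMSO median and -100 = no signal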
rRNA inh HTS RFP = second read-out of rRNA inh HTS, no call of its own (marks repeat the call); RFP signal change, %; measured here: RFP humanized mutant strains;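 first replicate; 0 = DMSO median and -100 = no signal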
An asterisk follows results filed as active; i = inactive; ? = inconclusive; · = no result given; & = joins results of further samples. A portion of the library; rates above refer to the full screens.

SMILES	Ecoli growth	MLL AF4-AF9 inh	HNF4A DNA FP	Vif A3G	ALR inh	FGF22 binding	rRNA inh HTS	rRNA inh HTS OD600	rRNA inh HTS RFP
Cc1nc(Nc2ccc(Cl)cc2)c(C#N)c(=O)[nH]1	0.734	0.2	-1.6	·	-7.7	i	-1.9	-1.6	-2.2
CCOC(=O)[C@H]1[C@H]2COc3ccccc3[C@@H]2N2C(=O)[C@@H](CO)NC(=O)[C@@]12C	·	-2.6	1.1	·	-2.1	i	2.3	8.8	-6.1
COC(=O)c1ccccc1NC(=O)N1CCCC1	0.742	·	4.0	-2.2%	2.0	·	·	·	·
C[C@H](CO)N1C[C@H](C)[C@@H](CN(C)C(=O)c2ccccn2)Oc2ncc(Br)cc2C1=O	·	-2.1	·	·	·	i	6.0	9.5	-1.9
CN(CCO)c1ccc(-c2nn(C)c(=O)c3ccccc23)cc1[N+](=O)[O-]	0.649	-0.2	-3.3	·	-7.5	i	17.4	8.9	3.5
C[C@H](CO)N1C[C@H](C)[C@@H](CN(C)Cc2ccncc2)Oc2c(NS(=O)(=O)c3ccc(Cl)cc3)cccc2C1=O	0.692	-2.6&0.9	2.1	-2.1%	·	i	3.4&7.2	4.1&9.2	1.0&4.1
CCNC(=O)NC(=O)C(C)OC(=O)c1oc2ccc(OCC)cc2c1C (stereo not drawn)	0.746	·	3.1	64.4%	-0.3	·	·	·	·
CC1CCCCN1Cc1nc2c(c(=O)n(C)c(=O)n2C)n1Cc1c(F)cccc1Cl (stereo not drawn)	0.725	·	1.0	-0.4%	-0.6	·	·	·	·
CCOc1ccc(N(CC(=O)NC(C(C)C)C(C)C)S(=O)(=O)c2ccc(OC)c(OC)c2)cc1	0.679	-7.7	-2.8	-3.3%	-8.4	i	-30.0*	-14.0*	0.6*
CCOP(=O)(OCC)c1nc(-c2ccccc2)oc1NCc1ccccc1	0.69	10.3	-3.2	1.4%	-10.3	i	-12.8	11.2	4.3
C[C@@H]1CN([C@@H](C)CO)S(=O)(=O)c2ccc(-c3cccnc3)cc2O[C@H]1CN(C)CC1CCOCC1	·	6.6	·	·	·	i	-2.5	3.4	-3.3
CCS(=O)(=O)c1ccc(O)c(NC(=O)COc2ccc(C)cc2)c1	0.614	·	3.1	10.3%	-9.1	·	·	·	·
O=S(=O)(NCCCc1ccccc1)c1ccc(Br)cc1	0.632	-3.6	2.0	·	2.4	i	-30.9	-32.5	2.9
COc1ccc(C2Nc3ccccc3C(=O)N2NS(=O)(=O)c2ccccc2)c(OC)c1 (stereo not drawn)	0.638	1.4	-2.6	·	-1.2	i	2.9	2.8	-0.9
CCOc1ccc(NC(=O)CN(C)C(=O)CSCc2ccc(C)cc2)cc1OCC	0.64	4.5	0.2	0.0%	-10.4	i	3.9	13.2	2.2
C[C@H]1CN([C@@H](C)CO)C(=O)Cc2cc(NS(=O)(=O)c3ccccc3)ccc2O[C@@H]1CN(C)CC1CCCCC1	·	1.5	·	·	·	i	3.7	-9.3	-0.2
COc1ccc(-c2nnc(-c3ccc(N)cc3)o2)cc1	0.677	·	-0.6	38.9%	-10.4	·	·	·	·
COC(=O)c1cc(C)nc(Sc2ccccc2NC(C)=O)n1	0.651	-0.9	-1.0	·	-2.3	i	11.9	23.6	3.4
Cc1ccccc1N1C(=O)C2ON(c3ccccc3)C(c3cccnc3)C2C1=O (stereo not drawn)	0.664	·	5.9	74.0%	-4.6	·	·	·	·
O=C(Cc1ccc(S(=O)(=O)N2CCOCC2)s1)Nc1ccccc1Br	0.652	-1.4	-1.6	1.5%	4.8	i	-1.0	-5.6	-1.9

Molecules from the list above that contain bromine:
SMILES	Ecoli growth	MLL AF4-AF9 inh	HNF4A DNA FP	Vif A3G	ALR inh	FGF22 binding	rRNA inh HTS	rRNA inh HTS OD600	rRNA inh HTS RFP
C[C@H](CO)N1C[C@H](C)[C@@H](CN(C)C(=O)c2ccccn2)Oc2ncc(Br)cc2C1=O	·	-2.1	·	·	·	i	6.0	9.5	-1.9
O=S(=O)(NCCCc1ccccc1)c1ccc(Br)cc1	0.632	-3.6	2.0	·	2.4	i	-30.9	-32.5	2.9
O=C(Cc1ccc(S(=O)(=O)N2CCOCC2)s1)Nc1ccccc1Br	0.652	-1.4	-1.6	1.5%	4.8	i	-1.0	-5.6	-1.9

Back to the main list, repeating the 2 entries before the break.
SMILES	Ecoli growth	MLL AF4-AF9 inh	HNF4A DNA FP	Vif A3G	ALR inh	FGF22 binding	rRNA inh HTS	rRNA inh HTS OD600	rRNA inh HTS RFP
Cc1ccccc1N1C(=O)C2ON(c3ccccc3)C(c3cccnc3)C2C1=O (stereo not drawn)	0.664	·	5.9	74.0%	-4.6	·	·	·	·
O=C(Cc1ccc(S(=O)(=O)N2CCOCC2)s1)Nc1ccccc1Br	0.652	-1.4	-1.6	1.5%	4.8	i	-1.0	-5.6	-1.9
Cc1cc(=O)oc2cc(OCC(O)CN3CCc4ccccc4C3)ccc12 (stereo not drawn)	·	·	-1.6	?	-14.1	·	·	·	·
O=C(C[C@H]1C=C[C@H](NC(=O)c2cccnc2)[C@@H](CO)O1)NCc1ccc(Cl)c(Cl)c1	·	-2.5	·	·	·	i	-3.0	-1.1	-3.3
COc1ccc(Cn2nnnc2C(c2cccs2)N2CCCCCC2)cc1 (stereo not drawn)	0.677	·	-0.4	8.4%	·	·	·	·	·
Cn1cccc1/C=C1\SC(=S)N(NC(=O)c2ccc(F)cc2)C1=O	0.608	6.0	90.9*	14.3%	·	i	-33.0	-26.9	5.0
O=C(NCc1ccc2c(c1)OCO2)c1ccc(CS(=O)(=O)c2cccc(C(F)(F)F)c2)o1	0.678	·	1.5	3.7%&-1.3%	·	·	·	·	·
CC(=O)Nc1ccccc1NC(=O)C/C(C)=N/NC(=O)C(=O)Nc1cccc(Cl)c1C	·	-1.0	4.2	1.3%	5.9	i	6.3	9.7	7.2
COc1cc(C(=O)Nc2ccccc2C(=O)Nc2ccccn2)cc(OC)c1OC	0.707	-9.4	3.8	·	-2.4	i	5.5	8.0	-0.3
O=C(N/N=C/c1cc([N+](=O)[O-])ccc1Cl)c1cc(-c2ccccc2)nc2ccccc12	·	-0.8	-2.8	-3.0%	-3.4	i	8.1	15.4	2.9
O=C(CSc1nncn1-c1cccnc1)Nc1ccccc1C(F)(F)F	0.698	1.1	-0.7	·	·	i	5.8	8.5	2.2
O=C(C[C@@H]1CC[C@@H](NS(=O)(=O)c2ccccc2)[C@@H](CO)O1)NCCN1CCCCC1	·	1.6	·	·	·	i	1.8	-1.8	-0.3
O=C(CSc1nc2ccccc2c(=O)n1-c1ccccc1F)NC1CCS(=O)(=O)C1 (stereo not drawn)	0.68	-1.1	-0.9	·	·	i	·	·	·
CCN(CC)CCN(C(=O)c1ccc(N2C(=O)CCC2=O)cc1)c1nc2cc3c(cc2s1)OCCO3	0.691	12.7	5.2	10.2%	-15.8	i	4.7	10.2	9.0
CCCCCCN1C[C@H](n2cc(COC(=O)c3ccccc3)nn2)[C@@H](O)C[C@@H]1c1ccc(OC)cc1	·	1.8	0.9	-1.6%	·	i	1.3	3.1	-5.3
CCOC(=O)c1cnn(CCOC(=O)C2CC2)c1NC(=O)C1CC1	0.712	·	4.0	-7.1%	-9.5	·	·	·	·
O=C(O)c1cc(-c2ccc(/C=N/Nc3ccc([N+](=O)[O-])cn3)o2)ccc1Cl	·	1.2	3.3	5.4%	·	·	11.0	-0.3	0.3
S=c1[nH]nc(C2CCCCC2)n1/N=C/c1c(Cl)cccc1Cl	·	-0.1	-1.2	-1.3%	-4.4	i	-16.6	-19.4	-1.5
Cc1ccc(C(c2nnnn2C(C)(C)C)N(Cc2ccco2)Cc2cccs2)cc1 (stereo not drawn)	0.743	·	1.8	?	-21.3	·	·	·	·
Nn1c(SCC(=O)Nc2ccccc2)nnc1-c1cccnc1	0.795	·	-1.6	2.8%	-8.0	·	·	·	·
O=C(CSc1nnc(-c2c[nH]c3ccccc23)n1C1CC1)NC1CCS(=O)(=O)C1 (stereo not drawn)	·	3.0	1.1	0.8%	·	i	6.4	7.2	-1.8
[O-][n+]1c2ccccc2c2n1CCCN=C2c1ccc(Cl)cc1	0.662	11.6	7.3	·	10.5	i	-0.8	2.1	-2.0

Pulled one by one from the entries so far, two records:
SMILES	Ecoli growth	MLL AF4-AF9 inh	HNF4A DNA FP	Vif A3G	ALR inh	FGF22 binding	rRNA inh HTS	rRNA inh HTS OD600	rRNA inh HTS RFP
O=C(CSc1nncn1-c1cccnc1)Nc1ccccc1C(F)(F)F	0.698	1.1	-0.7	·	·	i	5.8	8.5	2.2
Cc1cc(=O)oc2cc(OCC(O)CN3CCc4ccccc4C3)ccc12 (stereo not drawn)	·	·	-1.6	?	-14.1	·	·	·	·

Continued.
SMILES	Ecoli growth	MLL AF4-AF9 inh	HNF4A DNA FP	Vif A3G	ALR inh	FGF22 binding	rRNA inh HTS	rRNA inh HTS OD600	rRNA inh HTS RFP
COc1ccc(C(=O)Nc2ccc(C)cc2C(=O)c2ccccc2)cc1	0.693	13.9	-1.7	3.4%	2.0	i	-18.6*	-15.8*	5.1*
Cc1ccc(Cc2c(C)nc3nc(SCC(=O)NCCCN4CCCCC4)nn3c2C)cc1	0.706	4.2	4.4	0.9%	-3.3	i	3.3	9.6	2.1
C[C@H](CO)N1C[C@H](C)[C@@H](CN(C)C(=O)Nc2ccccc2)Oc2c(NS(=O)(=O)c3ccccc3)cccc2C1=O	0.688	-6.1&-0.5	1.9	-4.9%	-3.8	i	-2.1&9.0	-3.3&2.9	-2.1&-2.0
CC(NS(=O)(=O)c1ccc(Cl)cc1)C(=O)N1CCOCC1 (stereo not drawn)	0.701	-2.5	3.4	·	-16.2	i	3.1	12.2	-1.8
CN1C(=O)CC(N2CCN(c3ccccc3)CC2)C1=O (stereo not drawn)	0.663	·	-4.6	·	94.2*	·	·	·	·
C(=N\c1nccs1)/Nc1nccs1	·	·	-0.1	2.8%	-2.0	·	·	·	·
Cc1cccc(NCN2C(=O)C3C4C=CC(C4)C3C2=O)c1 (stereo not drawn)	0.694	5.6	0.1	-0.3%	42.1	i	11.2	10.3	-0.5
O=C(Nc1ccccc1)c1ccccc1CCc1ccccc1	0.681	-0.3	-3.1	3.3%	-4.5	·	·	·	·
CCC(=O)NNc1ncnc2c1cnn2-c1ccccc1	0.694	-4.5	0.5	10.3%	2.4	i	3.4	2.7	-2.3
CNC(=S)Nc1ccc([N+](=O)[O-])cc1C	0.584	-1.2	2.5	1.2%	1.9	i	9.9	8.4	-10.5
NS(=O)(=O)c1ccc(N2N=C(c3ccccc3)CC2c2ccc(Br)cc2)cc1 (stereo not drawn)	·	-7.9	0.6	·	·	i	·	·	·
CCCN1C[C@H](C)[C@@H](OC)CN(C)C(=O)c2cc(NC(=O)C3CC3)ccc2OC[C@H]1C	·	-1.3	·	·	·	i	0.9	0.9	-2.0
CCN1C(=NCCCOC(C)C)N[C@@H](CCc2ccccc2)[C@H](C(=O)NCCCOC(C)C)[C@H]1C	·	-7.7	-1.6	·	-10.5	i	2.3	11.4	3.8
CCc1csc(CCNC(=O)C2CCC(=O)N(CCc3cccc(F)c3)C2)n1 (stereo not drawn)	0.726	-1.3	-1.0	·	-2.1	i	14.3	16.4	1.3
